PKD1 kinase inh = PKD1 (human) kinase inhibition; Q15139; PKD1 kinase fluorescence polarization assay; inhibition, %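 (about 10 µM by stock and volumes)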; 200,000 compounds, 0.056% hits;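 active means inhibition of 50% or more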;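 further: controls were vehicle for no effect and a reference inhibitor for full effect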
RGS16-Gao HTS = regulators of human RGS16-Galphao interaction; AID 1441; 220,000 compounds, 0.38% hits; binding response (% of control), % at 10 µM; bead-based flow cytometry RGS16-Galphao binding, fluorescence; actives lie on both sides;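 active means below 25% or above 175%, edge rows of some plates excepted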;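 further: Galphao activated by GDP with aluminum fluoride before binding; 100% = wells without compound and 0% = beads without RGS; some results beyond the cut were filed as inactive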
Target sequence (O15492 whole entry, looked up): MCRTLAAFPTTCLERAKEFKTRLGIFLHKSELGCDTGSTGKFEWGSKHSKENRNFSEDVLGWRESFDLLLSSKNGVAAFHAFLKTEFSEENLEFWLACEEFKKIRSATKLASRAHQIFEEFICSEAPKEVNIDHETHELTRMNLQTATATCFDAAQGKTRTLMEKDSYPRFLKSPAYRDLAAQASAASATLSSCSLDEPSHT
Target sequence (P09471 whole entry, looked up): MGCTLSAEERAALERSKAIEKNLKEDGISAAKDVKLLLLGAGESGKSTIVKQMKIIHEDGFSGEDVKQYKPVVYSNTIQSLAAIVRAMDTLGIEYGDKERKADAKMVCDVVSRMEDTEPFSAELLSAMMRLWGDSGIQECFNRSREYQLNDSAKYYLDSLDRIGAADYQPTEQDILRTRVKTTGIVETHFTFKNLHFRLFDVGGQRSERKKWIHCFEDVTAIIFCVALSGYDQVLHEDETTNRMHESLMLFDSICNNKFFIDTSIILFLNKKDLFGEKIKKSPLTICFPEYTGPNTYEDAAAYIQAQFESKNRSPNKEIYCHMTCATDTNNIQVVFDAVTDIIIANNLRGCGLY
INS promoter inh = TRM-6 insulin promoter activity inhibition. TRM-6 cells (human fetal islet line), insulin promoter-eGFP reporter, imaging; reporter expression induced with tamoxifen. inhibition, % at 2 µM. 130,000 compounds, 0.9% hits. AID 1273;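 active means inhibition above the mean plus 3 SD, with well images judged a real hit on visual review, cut at about 60% in these data, passing the limit was not always enough; inconclusive means inhibition over the cutoff but images rejected on review; inactive means inhibition not above the cutoff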
HSV augment = HSV replication enhancement; HSV replication augmentation in cells, fold increase; maximum fold increase; 220,000 compounds, 0.005% hits; AID 1956;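 active means peak rise of 1.5-fold or more in the series; inconclusive means self-fluorescent or not available for retest; tested in PC3 cells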;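 further: first round at 10 µM; read as green reporter fluorescence; hits show the peak of a series up to 25 µM; 1 = signal of infected wells without compound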
GALR2 agonist = agonists of human galanin receptor 2 (GALR2); GALR2-expressing cells, agonist activation read-out; activation, %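 (tested at 5 µM)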; 140,000 compounds, 0.48% hits; AID 803;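 active means above mean plus 3 SD of all compounds, about 5% in these data, not always enough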;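 further: 0% = vehicle buffer wells and 100% = reference agonist at full effect; tested in CHO reporter cells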
Target sequence (O43603 whole entry, looked up): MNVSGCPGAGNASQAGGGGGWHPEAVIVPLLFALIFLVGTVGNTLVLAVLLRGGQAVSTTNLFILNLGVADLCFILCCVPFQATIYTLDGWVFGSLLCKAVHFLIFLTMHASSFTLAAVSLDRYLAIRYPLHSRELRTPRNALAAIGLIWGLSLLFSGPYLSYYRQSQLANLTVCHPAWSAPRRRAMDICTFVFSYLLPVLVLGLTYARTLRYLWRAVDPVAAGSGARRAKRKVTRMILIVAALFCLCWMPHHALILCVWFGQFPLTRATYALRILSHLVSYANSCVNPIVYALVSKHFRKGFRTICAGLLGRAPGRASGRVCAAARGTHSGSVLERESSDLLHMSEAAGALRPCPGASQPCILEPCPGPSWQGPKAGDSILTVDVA
INS promoter inh cell count = recorded beside INS promoter inh, whose call it bears; normalized cell count, %; measured here: cell count, toxicity; reference of the scale not given here;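 cells exposed to compound for 48 h; stained nuclei by imaging scaled within each plate; lower means fewer cells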
HSV augment primary fold = recorded beside HSV augment, whose call it bears; fold increase; compound at 10 µM; measured here: primary screen fold increase 10 uM; tested in PC3 cells;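 GFP signal in the first replicate; 1 = infected wells without compound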
* marks the source's active call; other numbers are inactive results; i = inactive; ? = inconclusive; . = no result given; & = joins results of further samples; [ ] = another dose, or the depositor's remark.

SMILES	PKD1 kinase inh	RGS16-Gao HTS	INS promoter inh	INS promoter inh cell count	HSV augment	HSV augment primary fold	GALR2 agonist
CCOC(=O)C1(CCc2ccccc2)CCN(C(=O)CN2CCOC2=O)CC1	-5	101	-11	99	i	1.1	.
Cc1c(Cl)cnc(NC(=O)COC(=O)C(NC(=O)c2ccco2)C(C)C)c1Cl (centres undefined)	-4	98	17	93	i	0.66	-0.1
CCn1c(=N)n(CC(O)COc2ccc(C)cc2)c2ccccc21 (centres undefined)	.	101	.	.	i	0.83	.
Cc1ccnc(NS(=O)(=O)c2ccc(NC(=O)C3CCCCC3)cc2)n1	-14	99	.	.	i	0.94	-0.1
O=C(Nc1cccc(Cl)c1)Nc1ccc(Br)cc1F	6	44	30	92	i	1	1.2
CCCOc1ccc(-c2nnn(CC(=O)N3CCCCC3)n2)cc1	.	100	.	.	i	0.96	.
COc1ccc(C(=O)Nc2scc(-c3ccc(Cl)cc3Cl)c2C(N)=O)cc1	-3	101	.	.	i	0.98	0.7
O=C(CN1CCOCC1)Nc1cccc(C(=O)Nc2cccc(C(F)(F)F)c2)c1	-3	108	-8	127	i	1	0.3
CN(C)C(=O)c1cnc(Sc2ncc(C(F)(F)F)cc2Cl)n1C	-2	85	3	196	i	1	0.3
COc1ccccc1NC(=O)/C(=N/OCc1ccc(F)cc1)C(C)=O	-3	110	-7	85	i	0.95	.
COc1ccc2oc(=O)c(C(=O)N3c4ccccc4CC3C)cc2c1 (centres undefined)	-4	97	-40	207	i	0.83	-1.1
CC(C)CCOc1ccc(NC(=O)C2OC3OC(C)(C)OC3C3OC(C)(C)OC23)cc1 (centres undefined)	-7	103	.	.	i	0.89	-2.7
O=C(Cc1ccccc1F)OCC(=O)N1CCc2ccccc21	1	98	.	.	i	1.2	.
O=C1CC2C(=O)NCCN2C(=NC(=O)c2ccccc2)N1 (centres undefined)	-8	115	50	61	i	0.89	.
CCCN(C(=O)CN1C(=O)NC2(CCCCCC2)C1=O)C1CCS(=O)(=O)C1 (centres undefined)	-1	96	.	.	i	1	.
CC(C)c1ccc(-c2noc(C3CCCN(C(=O)c4ccc(F)cc4F)C3)n2)cc1 (centres undefined)	14	87	.	.	i	0.79	-0.5
Cc1cc(SCNC(=O)c2ccccc2)ncn1	-8	94	31	99	i	1	-2.1
Cc1ccc(SCCCCN2CCNCC2)cc1	-2	89	51	105	i	0.92	-0.6
CCOC(=O)c1ccc2c(c1)sc(=NC(=O)c1ccco1)n2CCOC	-19	102	.	.	i	0.99	-0.7
CCN=C1Sc2nc3ccc(OCC)cc3cc2CN1CCOC	-2	101	22	45	i	0.97	0.1
COCCCNCC(=O)Nc1sc(C)c(C)c1C(=O)OC	-8	102	0	112	i	1	-1.8
O=S(=O)(c1ccccc1)c1ccccc1/C=N\O	-18	104	.	.	i	1	-0.9
Cc1ccc(NC(=O)CC2SC(=O)NC2=O)cc1 (centres undefined)	5	71	48	123	i	0.91	-0.4
CCN1C(=O)c2cccc3c(NC(=O)c4ccccc4)ccc1c23	2	100	19	104	i	0.98	-2.7
Oc1[nH]c2ccccc2c1C=NCC1CCCO1 (centres undefined)	4	101	.	.	i	0.73	-0.3
CC(=O)c1nc2ccccc2n1CCc1ccccc1	-4	103	.	.	i	0.86	.
O=S(=O)(c1ccc(-c2ccon2)s1)N1CCN(c2ccncc2)CC1	.	102	.	.	i	1.2	.
Cc1cc(=O)oc2cc(OCC(=O)OCC(=O)N(CCC#N)c3ccccc3)ccc12	-2	101	.	.	i	0.98	.
COc1cc(NC(=O)c2cnn3c(C)cc(C)nc23)c(OC)cc1Cl	-13	95	-34	121	i	0.83	1.4
CC(C)[C@H](NC(=O)[C@H](CC(=O)O)NC(=O)[C@H](CCCCN)NC(=O)[C@@H](N)CCCN=C(N)N)C(=O)N[C@@H](Cc1ccc(O)cc1)C(=O)O	-2	101	-9	84	.	.	-0.6
Cc1ccc(CN(c2ccc(C(=O)N3CCOCC3)cc2)S(C)(=O)=O)cc1	-16	99	-23	117	i	1	-2.9
CN(C)/C=C1\C=C2C(=O)c3ccccc3N2C1=O	.	224*[activator]	.	.	?	.	.
CCOC(=O)c1ccc(NC(=O)CCc2ccc(CC)o2)cc1	0	101	.	.	i	0.99	8.4
N#CC(=C1Nc2ccccc2N1)S(=O)(=O)c1ccccc1	2	97	-39	37	i	1	.
O=c1cc(C(F)(F)F)nc(-c2ccccc2)[nH]1	-18	100	.	.	i	0.92	-0.3
CN1CCN(C(=O)C2(NC(=O)Nc3ccccc3Cl)CCCCC2)CC1	-7	96	-58	95	i	0.93	-2.4
CC(C)COc1ccc(S(=O)(=O)n2cc(F)c(=O)[nH]c2=O)cc1	0	100	.	.	i	1.1	.
CC1(C)N=C(C(=O)c2ccccc2)N(O)C1(C)O (centres undefined)	-6	102	.	.	i	1.3	-1.0
COc1ccc(/C=C2\CCC(C3CCCC3)C2=O)cc1Cn1cccn1 (centres undefined)	-2	103	-36	122	i	0.92	0.5
CC(C)c1ccc(NC(=O)CSc2nnc(-c3ccccn3)n2C)cc1	3	96	-65	86	.	.	-0.1
COc1ccc(-c2nc(-c3ccccn3)ncc2S(C)(=O)=O)cc1	-7	105	11	106	i	1	.
COC(=O)c1ccc(S(=O)(=O)N2CCCCC2)o1	-4	94	.	.	i	0.81	-0.2
COc1ccccc1NS(=O)(=O)c1cccc(NC(=O)c2ccc3ccccc3n2)c1	8	135	.	.	i	1	-0.5
CCC1(C)NC(=O)N(CC(=O)N2N=C(c3ccccc3)CC2c2ccc(OC)cc2)C1=O (centres undefined)	-13	95	.	.	i	0.93	-0.9
CN1CCN(CCCN2c3ccccc3Sc3ccc(C(F)(F)F)cc32)CC1	2	103&102	-5	141	i	0.8	1.6
O=C1CCCC2=C1C(c1ccc(O)c(Br)c1)C1=C(CCCC1=O)N2c1ccccc1	-5	99	.	.	i	1	.
Cc1cc(N)n(-c2ccc(S(N)(=O)=O)cc2[N+](=O)[O-])n1	-7	103	.	.	i	0.96	.
CC(N=C1NS(=O)(=O)c2ccccc21)c1ccccc1 (centres undefined)	10	105	.	.	i	0.99	-0.1
COc1ccc(CCNC(=O)C2CCN(S(=O)(=O)c3cccc4nsnc34)CC2)cc1OC	11	100	-8	69	i	1.1	-1.3
COC(=O)CN1C(=S)N(c2ccc(OC)cc2)C(=O)/C1=C/c1ccc(N2CCOCC2)cc1	-2	106	-210	120	?	.	.

23 consecutive entries out of the list so far, for reference:
SMILES	PKD1 kinase inh	RGS16-Gao HTS	INS promoter inh	INS promoter inh cell count	HSV augment	HSV augment primary fold	GALR2 agonist
Oc1[nH]c2ccccc2c1C=NCC1CCCO1 (centres undefined)	4	101	.	.	i	0.73	-0.3
CC(=O)c1nc2ccccc2n1CCc1ccccc1	-4	103	.	.	i	0.86	.
O=S(=O)(c1ccc(-c2ccon2)s1)N1CCN(c2ccncc2)CC1	.	102	.	.	i	1.2	.
Cc1cc(=O)oc2cc(OCC(=O)OCC(=O)N(CCC#N)c3ccccc3)ccc12	-2	101	.	.	i	0.98	.
COc1cc(NC(=O)c2cnn3c(C)cc(C)nc23)c(OC)cc1Cl	-13	95	-34	121	i	0.83	1.4
CC(C)[C@H](NC(=O)[C@H](CC(=O)O)NC(=O)[C@H](CCCCN)NC(=O)[C@@H](N)CCCN=C(N)N)C(=O)N[C@@H](Cc1ccc(O)cc1)C(=O)O	-2	101	-9	84	.	.	-0.6
Cc1ccc(CN(c2ccc(C(=O)N3CCOCC3)cc2)S(C)(=O)=O)cc1	-16	99	-23	117	i	1	-2.9
CN(C)/C=C1\C=C2C(=O)c3ccccc3N2C1=O	.	224*[activator]	.	.	?	.	.
CCOC(=O)c1ccc(NC(=O)CCc2ccc(CC)o2)cc1	0	101	.	.	i	0.99	8.4
N#CC(=C1Nc2ccccc2N1)S(=O)(=O)c1ccccc1	2	97	-39	37	i	1	.
O=c1cc(C(F)(F)F)nc(-c2ccccc2)[nH]1	-18	100	.	.	i	0.92	-0.3
CN1CCN(C(=O)C2(NC(=O)Nc3ccccc3Cl)CCCCC2)CC1	-7	96	-58	95	i	0.93	-2.4
CC(C)COc1ccc(S(=O)(=O)n2cc(F)c(=O)[nH]c2=O)cc1	0	100	.	.	i	1.1	.
CC1(C)N=C(C(=O)c2ccccc2)N(O)C1(C)O (centres undefined)	-6	102	.	.	i	1.3	-1.0
COc1ccc(/C=C2\CCC(C3CCCC3)C2=O)cc1Cn1cccn1 (centres undefined)	-2	103	-36	122	i	0.92	0.5
CC(C)c1ccc(NC(=O)CSc2nnc(-c3ccccn3)n2C)cc1	3	96	-65	86	.	.	-0.1
COc1ccc(-c2nc(-c3ccccn3)ncc2S(C)(=O)=O)cc1	-7	105	11	106	i	1	.
COC(=O)c1ccc(S(=O)(=O)N2CCCCC2)o1	-4	94	.	.	i	0.81	-0.2
COc1ccccc1NS(=O)(=O)c1cccc(NC(=O)c2ccc3ccccc3n2)c1	8	135	.	.	i	1	-0.5
CCC1(C)NC(=O)N(CC(=O)N2N=C(c3ccccc3)CC2c2ccc(OC)cc2)C1=O (centres undefined)	-13	95	.	.	i	0.93	-0.9
CN1CCN(CCCN2c3ccccc3Sc3ccc(C(F)(F)F)cc32)CC1	2	103&102	-5	141	i	0.8	1.6
O=C1CCCC2=C1C(c1ccc(O)c(Br)c1)C1=C(CCCC1=O)N2c1ccccc1	-5	99	.	.	i	1	.
Cc1cc(N)n(-c2ccc(S(N)(=O)=O)cc2[N+](=O)[O-])n1	-7	103	.	.	i	0.96	.

Following part
SMILES	PKD1 kinase inh	RGS16-Gao HTS	INS promoter inh	INS promoter inh cell count	HSV augment	HSV augment primary fold	GALR2 agonist
CC(C)CNC(=O)NC(=O)COC(=O)Cn1cnc2ccccc2c1=O	-6	102	.	.	i	1.2	.
CCC1CC2CC(NC(C)=O)C1C2 (centres undefined)	-14	99	23	67	i	0.96	-2.0
Cc1nn(Cc2ccc(F)cc2)c(C)c1NC(=O)CCCn1nc([N+](=O)[O-])cc1C	-4	108	18	80	i	0.99	.
Oc1ccc2ccccc2c1CN1CCOCC1	.	97	.	.	i	0.92	.
CC1(C)C2CCC(C2)C1(C)NC(=O)CN1CCOCC1 (centres undefined)	-10	119	.	.	i	1.1	-1.3
CCOC(=O)c1ccc(-n2c(CN3CCOCC3)nc3ccc([N+](=O)[O-])cc3c2=O)cc1	8	96	.	.	i	0.94	.
Cc1[nH]n(-c2ccccc2)c(=O)c1CCOC(=O)c1ccc(C(F)(F)F)cc1	-8	101	21	160	i	0.91	-0.3
O=C(Nc1nnc(SCc2ccccc2Cl)s1)C1COc2ccccc2O1 (centres undefined)	0	26	-43	92	i	0.88	-0.2
O=C(COc1ccccc1Cl)Nc1nc(-c2cccs2)cs1	-7	102	26	89	i	0.94	-1.9
O=C1NC(c2cc(Cl)cc([N+](=O)[O-])c2O)Nc2ccccc21 (centres undefined)	.	98	.	.	i	0.95	.
COCCNC(=O)c1c[nH]c2ccc(OC)cc2c1=O	-3	98	21	53	i	0.92	-1.8
CC(C)Nc1nnc(SCC(=O)c2c(N)n(Cc3ccccc3)c(=O)n(C)c2=O)s1	-8	51	46	81	i	0.89	-1.7
O=C(CSc1ccc(-c2ccccc2)nn1)N1CCCCC1	-1	100	38	107	i	1	.
CC(/C=C/c1ccccc1)=N\Nc1nc(-c2ccccc2)cs1	5	105	0	93	i	0.94	-1.5
Cc1cc(C)c(C(=O)N2CCCC(CNC(=O)C3(c4ccc(Cl)cc4)CC3)C2)c(=O)[nH]1 (centres undefined)	-3	109	.	.	i	0.98	.
NC(=O)COC(=O)c1ccc2c(c1)S(=O)(=O)N=C1CCCCCN12	-7	102	-8	106	i	0.96	-0.9
CCOC(=O)c1cnc(SCC(=O)Nc2sc(C)c(C)c2C#N)nc1N	-12	107	-9	93	i	1.1	0.6
CN1CCN(c2ccc([N+](=O)[O-])cc2C(=O)Nc2ccccc2)CC1	-1	114	-59	59	i	1	.
COc1ccccc1S(=O)(=O)Cc1ccc(C(=O)NCCN2CCCC2)o1	20	99	.	.	i	0.79	-2.0
CC1=CC(=C(C#N)C#N)C=C(C)N1CCC(C)C	-1	94	.	.	i	0.99	.
COc1ccccc1-c1cc(C(=O)NCc2cccs2)no1	4	98	.	.	i	0.89	1.4
CC(C)NC(=O)c1ccc(N2CCOCC2)nc1	1	83	-22	100	i	0.93	-0.1

Screens (PubChem)
